Screening results (PubChem BioAssay)
D2 ag = human D2 receptor agonism in beta-arrestin assay; P14416; DiscoveRx PathHunter D2 beta-arrestin, luminescence, 90 min; 100% = 57 uM dopamine signal; activation, % (no concentration beside the values); actives 0.084% (n = 360,000); in the data active = activation above about 40%; inconclusive = about 15% to 40%; inactive = below about 15%; also: compound concentration not given in the record; the text of the record calls up to 30% inactive
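Agonist mode: compounds alone added to overnight-plated D2 PathHunter cells for 90 min at 37 C, with 57 uM final dopamine (EC100) defining full response. Beta-arrestin recruitment detected by chemiluminescent reagent, read after 1 h at ambient temperature.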
Six1-Eya2 blk = inhibitors of human Six1/Eya2 interaction | Q15475+O00167 | AlphaScreen GST-Six1/His-Eya2 binding, biochemical; hits give low values; control for the full effect not named in the record | activity change, % (no concentration beside the values) | actives 0.56% (n = 360,000); in the data active = activity change below about -65%; inconclusive = about -30% to -65%; inactive = above about -30%; also: % is scaled to controls: 0 for no effect and ±100 for the full control effect; compound concentration not given in the record
Target sequence (O00167 whole entry, looked up): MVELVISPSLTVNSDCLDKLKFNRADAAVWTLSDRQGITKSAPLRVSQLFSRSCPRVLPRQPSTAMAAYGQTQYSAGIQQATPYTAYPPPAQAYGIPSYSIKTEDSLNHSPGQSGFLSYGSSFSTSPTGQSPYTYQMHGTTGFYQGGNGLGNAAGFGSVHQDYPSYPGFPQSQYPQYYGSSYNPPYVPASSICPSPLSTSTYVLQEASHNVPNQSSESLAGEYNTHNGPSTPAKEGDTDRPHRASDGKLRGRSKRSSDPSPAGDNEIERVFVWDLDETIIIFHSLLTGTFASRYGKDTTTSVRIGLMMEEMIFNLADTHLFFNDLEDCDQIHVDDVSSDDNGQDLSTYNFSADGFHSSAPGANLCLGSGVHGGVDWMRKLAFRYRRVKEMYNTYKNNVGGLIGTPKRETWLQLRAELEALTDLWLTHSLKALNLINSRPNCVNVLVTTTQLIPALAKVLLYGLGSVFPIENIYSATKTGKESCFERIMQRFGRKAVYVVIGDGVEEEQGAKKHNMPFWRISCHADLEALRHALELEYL
Target sequence (Q15475 whole entry, looked up): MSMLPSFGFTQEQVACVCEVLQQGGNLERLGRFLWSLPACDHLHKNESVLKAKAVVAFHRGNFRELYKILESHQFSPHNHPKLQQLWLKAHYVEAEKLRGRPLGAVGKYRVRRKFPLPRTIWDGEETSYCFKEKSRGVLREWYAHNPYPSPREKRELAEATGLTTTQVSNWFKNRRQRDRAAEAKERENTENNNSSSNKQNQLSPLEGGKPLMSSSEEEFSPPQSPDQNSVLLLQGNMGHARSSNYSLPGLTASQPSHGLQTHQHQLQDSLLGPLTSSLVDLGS
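AlphaScreen luminescence read after one hour at 37 °C in darkness. Pin-transferred compounds met GST-Six1 and His-Eya2 protein (5X stock 250 nM/500 nM) plus glutathione donor and Ni-chelate acceptor beads (5X, 50 ug/mL).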
CtBP-E1A inh = blocks the CtBP interaction with E1A | AlphaScreen GST-E1A/His-CtBP binding, 1536-well; hits give low values; control for the full effect not named in the record | activity change, % (concentration not given with the values) | actives 0.49% (n = 340,000) | AID 651724; in the data active means activity change below about -65%; inconclusive means about -30% to -65%; inactive means above about -30%; also: % is scaled to controls: 0 for no effect and ±100 for the full control effect
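AlphaScreen with 125 nM GST-E1A and 125 nM His-CtBP (5X stocks) in Tris pH 8.0, 300 mM NaCl, BSA, Tween 20, TCEP. Compounds preincubated 2 h at 37 deg C, then glutathione donor/nickel acceptor beads added for 1 h at 37 deg C in dark.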
D2 PAM = positive allosteric modulators of human D2 dopamine receptor; DiscoveRx D2 beta-arrestin cells, luminescence, 90 min; 100% = 57 uM dopamine signal; potentiation, % (test concentration not listed); actives 0.23% (n = 360,000); AID 624464; active = potentiation of 50% or more; inconclusive = 30% to 50%; inactive = 30% or less;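 also: compound concentration not given in the record; tested on top of an EC20 dose of dopamine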
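D2 cells co-treated with compound plus 50 nM dopamine (EC20) for 90 min at 37 deg C to detect potentiation. Beta-arrestin recruitment was read as enzyme-fragment luminescence after 1 h at ambient temperature. Full response was set by 57 uM dopamine.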
gsp antagonist = antagonizes gsp, the McCune-Albright syndrome mutation | gsp-mutant cells, cAMP HTRF, 30 min; control for the full effect not named in the record | Potency, µM (top dose mostly 76.9 µM), for the others: top-dose activity change, negative = inhibition, hits mostly inhibitors | actives 0.4% (n = 340,000); active = falling curve of any shape with a large fitted effect; inconclusive = falling curve, mostly with a smaller effect; inactive = flat or rising curve; cell line not stated here;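 also: intracellular cAMP measured with PDE inhibitor Ro 20-1724 present during compound exposure; potency is read from the fitted curve at half-maximal effect; % is scaled to controls: 0 for no effect and ±100 for the full control effect; nearly all actives have a fitted effect of over 65% in size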
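HTRF cAMP measurement after 30 min RT detection following 30 min, 37C compound treatment alongside […] (added as 300 uM solution) in G418-selected cells seeded at 2000/well and grown 16–24 h.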
gsp ag = agonists of gsp mutant (McCune-Albright syndrome) | Potency, µM (top dose mostly 76.9 µM), without a hit: at the highest dose activation (cAMP increase), hits mostly activators | actives 0.13% (n = 340,000) | gsp mutant cells, cAMP HTRF, 30 min; control for the full effect not named in the record; active = well fitted activation curve with a large enough effect; inconclusive = small, poorly fitted or top-dose-only effect, or another doubt; inactive = no such curve, though single readings can be large or run the other way; cell line not stated here;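 also: phosphodiesterase inhibitor Ro 20-1724 added with compounds to block cAMP breakdown; potency is read from the fitted curve at half-maximal effect; nearly all actives have a fitted effect of over 60% in size; about a fifth of the inactives were tested at one dose only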
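Cells in DMEM/10% FBS with G418 were pretreated with compounds in DMSO plus […] (300 uM stock) for 30 min at 37C. cAMP was measured by HTRF (cAMP-d2 plus anti-cAMP antibody-K) after 30 min at room temperature.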
Starred values were filed as active, the others as inactive; ? = inconclusive; . = no result given; [ ] = another dose, or the depositor's remark.

entry	compound	D2 ag	Six1-Eya2 blk	CtBP-E1A inh
1	CCOc1ccc(NC(=O)c2ccc3c(c2)C(=O)N(Cc2ccncc2)C3=O)cc1	-3.0	6	2
2	Cc1ccccc1N=C(N)Nc1ccccc1C	3.0	6	5
3	COC(=O)[C@@H]1C[C@H]2CC[C@H](O)C[C@H]2N1Cc1ccc(Cl)cc1	0.7	-2	2
4	O=C(N=C1SC2CS(=O)(=O)CC2N1c1ccccc1F)C1CCCCC1 (stereo not drawn)	8.3	9	13
5	O=C(Nc1ccncc1)c1cc(-c2cccc(Br)c2)nc2ccccc12	12	4	0
6	Cc1ccc(NC(=O)C(=O)NCCN2CCN(C(=O)C(c3ccccc3)c3ccccc3)CC2)cc1	-3.5	-1	3
7	Cc1nn(Cc2ccccc2Cl)c(C)c1C(=O)NC1=NCCS1	0.3	0	3
8	CCOc1cc(/C=C2/NC(=O)N(CC(=O)Nc3cccc(C)c3)C2=O)ccc1OC	-2.0	-4	1
9	O=C(COC(=O)c1ccc(S(=O)(=O)Nc2ccccc2)cc1)NCC1CCCO1 (stereo not drawn)	-2.0	-3	0
10	Cc1cc(C)n2nc(SCc3nnc(SCc4ccccc4)s3)nc2n1	0.0	-15	-16
11	CC(=O)Nc1ccc(C(=O)OCCCOC(=O)c2ccc(NC(C)=O)cc2)cc1	-1.0	1	-6
12	O=c1cc2c(n[nH]1)-c1ccccc1CC2	3.5	3	-1

entry	D2 PAM	gsp antagonist	gsp ag
1	3	-10%	-5%[15.4 µM]
2	-2	13%	0%
3	-3	12%	-43%
4	0	-1%	-54%[inhibitor]
5	?	-7%	10%
6	-4	10%	-48%[inhibitor]
7	21	-9%	-11%
8	-10	6%	-3%
9	-9	-9%	-2%
10	3	-10%	9%
11	-13	4%	24%
12	-1	4%	10%

The list goes on:
entry	compound	D2 ag	Six1-Eya2 blk	CtBP-E1A inh
13	CCOC(=O)c1cc2cc(CC(=O)c3ccc(OCC)cc3O)ccc2o1	-2.4	1	11
14	COc1ccc(C(=O)Nc2nnc(SCC(=O)NCc3ccco3)s2)c(OC)c1	3.9	-7	-8
15	CCCn1c(C)c(C(=O)OCC)c(O)c(-c2ccccc2)c1=O	0.1	13	9
16	CCN1CCN(S(=O)(=O)c2ccc(Cl)c(C(=O)N(C)Cc3cccs3)c2)CC1	-5.0	-3	0
17	O=C(NCc1ccccn1)c1cccc(NS(=O)(=O)c2ccccc2F)c1	-0.6	2	0
18	CCC(=O)N1CCN(c2cc3c(cc2F)c(=O)c(C(=O)O)cn3CC)CC1	-0.5	-9	-5
19	Cc1ccc2nc(NC(=O)C3CCN(S(=O)(=O)c4cccc5nsnc45)CC3)sc2c1	2.3	-3	-4
20	N/C(=N\OC(=O)c1ccc([N+](=O)[O-])cc1Cl)c1ccccn1	?	-6	-7
21	CCCCN(CC)C(=O)CSc1cc(=O)n(C)c2ccccc12	-1.6	4	-1
22	C=CCn1cccc(C(=O)Nc2ccc(C)c(Cl)c2)c1=O	1.7	2	4
23	N#Cc1nc(-c2ccc(Cl)cc2)oc1NCC1CCCO1 (stereo not drawn)	12	-10	-20
24	O=C(N/N=C/c1c[nH]c2ccccc12)c1[nH]c2ccc(Br)cc2c1-c1ccccc1	-2.1	-5	-3

entry	D2 PAM	gsp antagonist	gsp ag
13	-5	0%	22%
14	8	-22%	?
15	1	-5%	2%[15.4 µM]
16	-3	6%	-29%
17	-3	0%	4%[15.4 µM]
18	-1	14%	2%[15.4 µM]
19	-8	?	-41%[inhibitor]
20	17	-1%	2%
21	2	-10%	30%
22	0	8%	-14%[15.4 µM]
23	-8	-4%	4%
24	1	17%	-44%[inhibitor]

More structures:
entry	compound	D2 ag	Six1-Eya2 blk	CtBP-E1A inh
25	CCOCCCNCC(=O)Nc1ccccc1N1CCOCC1	-1.3	4	14
26	O=C(NC(Cc1ccccc1)c1nc2ccccc2[nH]1)C1CC(=O)N(c2ccc3c(c2)OCCO3)C1 (stereo not drawn)	-0.8	18	31
27	O=C(NC(=O)N1CCN(C(c2ccccc2)c2ccccc2)CC1)c1ccccc1	0.1	-1	2
28	CC(C)CNC(=O)c1cccc2c(-c3ccc(F)c(F)c3)coc12	-1.2	6	8
29	Cc1ccc(CNc2nc(-c3cccs3)nc3ccccc23)cc1	-2.5	3	6
30	NNC(=S)NC1CCS(=O)(=O)C1 (stereo not drawn)	-2.1	6	-2
31	CCCCC(=O)NS(=O)(=O)c1ccc(N=NN2CCCCC2)cc1	0.6	-1	1
32	Cc1cccc(NC(=O)c2cccs2)n1	-4.8	-1	1
33	CC(=O)Nc1ccc(S(=O)(=O)Nc2ccc3c(c2)OCCO3)cc1Cl	7.4	7	6
34	Nc1ncnc(Nc2c(F)cccc2F)n1	-5.2	-10	1
35	COc1cccc(C(=O)N/N=C/c2cn[nH]c2-c2ccc(OC)cc2OC)c1	-0.4	-8	-8
36	CC(Oc1ccccc1F)C(=O)/C=C/N(C)C (stereo not drawn)	1.4	-2	-3

entry	D2 PAM	gsp antagonist	gsp ag
25	-8	12%	1%
26	-11	-9%	-9%
27	-1	-7%	-2%[15.4 µM]
28	-18	.	.
29	0	5%	2%
30	15	5%	-17%[15.4 µM]
31	18	4%	16%
32	-16	1%[15.4 µM]	8%
33	-1	-6%	?
34	-3	-2%	-2%[15.4 µM]
35	-29	-3%	0%
36	3	-18%	-2%

Next structures:
entry	compound	D2 ag	Six1-Eya2 blk	CtBP-E1A inh
37	COc1ccc(CNC(=O)COC(=O)c2ccccc2C(=O)c2ccccc2)cc1	-5.3	8	.
38	COc1ccccc1N=NNc1ccccc1OC	-11	?	-15
39	Cc1nc2[nH]c(=O)c3c(n2n1)NC1=C(C(=O)CC(C)(C)C1)C3c1ccc(F)cc1 (stereo not drawn)	2.0	-3	5
40	Cc1cccc(Cc2nnc(CCC(=O)NCc3ccncc3C)o2)c1	-3.4	5	8
41	c1ccc(-n2c(Cc3cn4ccsc4n3)nnc2N2CCOCC2)cc1	-0.9	-9	-7
42	O=C(CNS(=O)(=O)c1ccc(Br)s1)Nc1ccc2c(c1)OCCO2	-3.1	-2	5
43	CC(C)CSc1nc2ccccc2c(=O)[nH]1	-0.3	1	2
44	O=C(Nc1ccccc1)N1CCc2scc[n+]2-c2ccccc21	-3.8	8	2
45	Cn1cccc1C(=O)/C(C#N)=C/c1ccc(F)cc1	-2.2	-6	0
46	COc1ccc(C(=O)NCC(=O)OCC(=O)NCc2ccc3c(c2)OCO3)cc1	-0.6	1	7
47	CCCc1nc2c(sc3nc4c(cc32)COC(C)(C)C4)c(=O)n1Cc1ccco1	1.3	-2	17
48	Cc1cccc(NC(=O)c2cccc3c2C(=O)c2ccccc2-3)c1	-5.7	-21	-10

entry	D2 PAM	gsp antagonist	gsp ag
37	-3	-16%	-58%[inhibitor]
38	-27	.	-1%
39	3	-31%	-27%
40	-2	-4%	11%[15.4 µM]
41	2	9%	22%
42	-17	3%	0%
43	-8	-2%	18%
44	-9	7%	12%[15.4 µM]
45	1	1%	0%
46	-2	-18%	-14%
47	-12	-5%	5%
48	-8	-1%	-40%[inhibitor]

(listing goes on)
entry	compound	D2 ag	Six1-Eya2 blk	CtBP-E1A inh
49	COc1ccc(-c2onc(C)c2-c2cnn(-c3ccccc3)c2)c(O)c1	0.7	-5	-6
50	CC(=O)c1ccc(NC(=O)c2cc(=O)[nH]c3ccccc23)cc1	-5.5	-14	-5
51	Cc1ccc(C)c(OCCOCCN2CC(C)OC(C)C2)c1C (stereo not drawn)	-1.2	2	-8
52	CCCN(CCC)C(=O)CSc1nc2c(sc(=S)n2-c2ccc(OCC)cc2)c(=O)[nH]1	-0.9	-2	6
53	CC(C)CC(=O)Nc1ccccc1N1CCN(c2ccc(F)cc2)CC1	0.0	-5	-20
54	CCOC(=O)c1ccccc1NC(=O)COC(=O)C1CCCC1	2.6	17	39
55	CCOc1ccc(-c2c(=O)n(OCc3nc4ccccc4[nH]3)c3ccccc3[n+]2[O-])cc1	-1.9	-4	-5
56	CC1=Nc2ccccc2/C1=C\c1nc(-c2ccc(C(F)(F)F)cc2)oc1O	-1.9	-1	7
57	O=C(C1CCCC1)N1CCC(CC2CC(c3ccc(Cl)cc3)=NO2)(C(=O)NCC2CCCCC2)CC1 (stereo not drawn)	0.9	-1	0
58	Cc1cc(C)cc(N(CCC#N)C(=O)COC(=O)Cn2[nH]c(=O)c3ccccc3c2=O)c1	0.7	2	1
59	O=C(CN1C(=O)NC2(CCCC2)C1=O)Nc1ccccc1	-4.7	12	-1
60	CC(/C=C/c1ccccc1)=N\NC(=O)c1cc(C)[nH]n1	-4.1	2	7

entry	D2 PAM	gsp antagonist	gsp ag
49	2	-13%	8%
50	0	-2%	7%
51	-28	6%	5%
52	-9	14µM*	9%[15.4 µM]
53	-2	.	-14%[15.4 µM]
54	-3	14%	9%[15.4 µM]
55	-5	-22%	17%[15.4 µM]
56	-10	-7%	6%
57	-26	-15%	.
58	14	-28%	0%
59	-2	5%	-4%[15.4 µM]
60	1	-18%	15%

Reprinted at random: 3 compounds from above
entry	compound	D2 ag	Six1-Eya2 blk	CtBP-E1A inh
57	O=C(C1CCCC1)N1CCC(CC2CC(c3ccc(Cl)cc3)=NO2)(C(=O)NCC2CCCCC2)CC1 (stereo not drawn)	0.9	-1	0
54	CCOC(=O)c1ccccc1NC(=O)COC(=O)C1CCCC1	2.6	17	39
58	Cc1cc(C)cc(N(CCC#N)C(=O)COC(=O)Cn2[nH]c(=O)c3ccccc3c2=O)c1	0.7	2	1

entry	D2 PAM	gsp antagonist	gsp ag
57	-26	-15%	.
54	-3	14%	9%[15.4 µM]
58	14	-28%	0%
